# BJeLR viability = MLPCN primary cell-based screen for lethality selective to Ras in HRASV12 cells; AID 1554, 2009; 300,000 compounds, 0.17% hits; BJeLR (HRASV12) viability, CellTiter-Glo ATP luminescence, 48 h; reference of the scale not given here; inhibition, % (no concentration beside the values);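 active = replicate mean above 50%; inconclusive = above 50% but judged a plate artefact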;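 also: 50 nL library stock added to about 25 µL; numbers are from one replicate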
# PrP 5UTR inh = inhibition of PrP 5' UTR reporter expression. cell-based PrP 5' UTR mRNA reporter, plate reader. inhibition, % (no concentration beside the values). 340,000 compounds, 0.35% hits;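 active = every replicate at 50% or more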;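 also: 0 = median of the neutral control wells; tested in H4 reporter cells; numbers are from one replicate; inactives centre near -14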
# Autofluor counter = compound fluorescence in toxin protease inhibitor counterscreen; 360,000 compounds, 3.1% hits; fluorescence intensity (concentration not given with the values); compound autofluorescence counterscreen, microsphere flow cytometry; hits give high values;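 active = at least 3 SD above the mean of all compounds, about 16000 in these data; inconclusive = too few beads counted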;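 also: 100 nL of 1 mM stock went into each well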
# Mtb hypoxia rep = PubChem AID 1159583; M. tuberculosis hypoxia-regulated fluorescent reporter, fluorescence; fluorescence inhibition, % (test concentration not listed); 300,000 compounds, 0.1% hits;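 active = 35 to 45% if threefold the growth effect, above 45% if 1.5-fold the growth effect; inactive = the rest, general growth blockers included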;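 also: wells of about 50 µL received 100 nL stock; 0% = vehicle wells and 100% = reference inhibitor wells; whole bacteria with a GFP reporter of the hypoxia response; strong numbers were not always called active; many hits fall short of the cut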
# RN4220 kill = growth inhibition of S. aureus RN4220, primary screen, OD600 | 16 h | inhibition, % (test concentration not listed) | 330,000 compounds, 0.33% hits;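 active = z-score of -3 or lower and OD600 up to 0.18 on both plates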;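 also: plate controls were untreated cells for no effect and reference antibiotic for full effect; stock transfer was 100 nL into about 80 µL; one replicate is shown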
# Sa ugtP lethal = growth inhibition of ugtP-null S. aureus, primary screen, RN4220 ugtP deletion, OD600; AID 1259309, 2017; growth inhibition, % (concentration not given with the values); 330,000 compounds, 0.54% hits; 16 h; some inactives read as strong as hits;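 active = z-score under -3 and OD600 up to 0.15 on both plates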;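 also: plate controls were untreated wells for no effect and antibiotic for full effect; wells of about 80 µL received 100 nL stock; the first replicate is given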
# Mtb hypoxia rep growth = second read-out of Mtb hypoxia rep, no call of its own (marks repeat the call); growth inhibition, %; measured here: M. tuberculosis growth (absorbance);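 0% = vehicle and 100% = reference antibiotic; read after six days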
# The depositor's hits bear a star; ? = inconclusive; / = no result given.
SMILES,BJeLR viability,PrP 5UTR inh,Autofluor counter,Mtb hypoxia rep,Mtb hypoxia rep growth,RN4220 kill,Sa ugtP lethal
O=C(NCSC1=NCCS1)c1ccccc1,-2,-14,24719*,9,1,2.5,2
O=C(N/N=C\c1cc2c(cc1Cl)OCO2)c1cccnc1,2,-21,5618,/,/,/,/
CCCCSC1(SCCCC)N=C(N)C2(C#N)C(c3ccccc3)NC(C)=C(C)C12C#N (stereo not drawn),-13,-8,2746,/,/,1.5,-19
CC1CN(C(=O)CCC(=O)NCCCN2CCC(Cc3ccccc3)CC2)c2cc(Cl)ccc2O1 (stereo not drawn),-1,-5,5415,/,/,/,/
Cc1nc(-n2nnc3ccccc32)c2c3c(sc2n1)CCCC3,3,-3,10359,2,-3,3.1,38
CCCCCCn1nc(C(=O)OCC(=O)c2c(N)n(C)c(=O)n(C)c2=O)c2ccccc2c1=O,-5,-20,4425,9,9,-18,8
O=C(NCc1ccccc1CN1CCCCC1)c1ccccc1N1CCCC1=O,/,-17,3889,3,9,-1.0,1
CN1CCCN(C2C3CC4CC(C3)CC2C4)CC1 (stereo not drawn),-12,-6,3756,0,6,-2.4,0
CC1CN(S(=O)(=O)c2cc(C(=O)NCCCN3CCCC3=O)ccc2Cl)CC(C)O1 (stereo not drawn),/,9,4278,-6,-3,2.5,-1
CC(C)Cc1nnc(NC(=O)CCC(=O)Nc2ccc3cn[nH]c3c2)s1,4,-10,3550,7,8,-1.9,5
Cc1nc(N)c(C#N)c(-c2ccccc2)c1C,-3,-2,2143,/,/,0.2,3
COc1cc(/C=N/N2CCN(c3ccccc3OC)CC2)ccc1O,-7,-8,16130*,/,/,/,/

# Pulled one by one from the entries so far, 4 records:
SMILES,BJeLR viability,PrP 5UTR inh,Autofluor counter,Mtb hypoxia rep,Mtb hypoxia rep growth,RN4220 kill,Sa ugtP lethal
Cc1nc(-n2nnc3ccccc32)c2c3c(sc2n1)CCCC3,3,-3,10359,2,-3,3.1,38
O=C(NCSC1=NCCS1)c1ccccc1,-2,-14,24719*,9,1,2.5,2
CCCCCCn1nc(C(=O)OCC(=O)c2c(N)n(C)c(=O)n(C)c2=O)c2ccccc2c1=O,-5,-20,4425,9,9,-18,8
CC1CN(C(=O)CCC(=O)NCCCN2CCC(Cc3ccccc3)CC2)c2cc(Cl)ccc2O1 (stereo not drawn),-1,-5,5415,/,/,/,/

# New compounds follow:
SMILES,BJeLR viability,PrP 5UTR inh,Autofluor counter,Mtb hypoxia rep,Mtb hypoxia rep growth,RN4220 kill,Sa ugtP lethal
COc1ccc(CCNC(=O)CCNC(=O)N2CC(=O)Nc3ccccc32)cc1,5,-35,5750,-3,7,4.4,-1
CCOC(=O)c1cnc2cc3c(cn2c1=O)CCCC3,-3,-48,2816,0,8,-14,-6
COc1ccc(C(CNC(=O)c2cccc(S(=O)(=O)Nc3ccc(Br)cc3)c2)N(C)C)cc1 (stereo not drawn),/,-18,4165,-4,6,-3.4,0
Cc1ccc(S(=O)(=O)N2CCC(C(=O)N3CCC[C@H]3C(=O)NC3CCS(=O)(=O)C3)CC2)cc1 (stereo partly drawn),-2,-2,23712*,6,2,3.3,0
O=C(NN=Cc1ccc(N2CCOCC2)cc1)c1ccccc1NS(=O)(=O)c1cccs1,/,/,/,9,5,17,9
CC#CCN1c2ccccc2[C@]23CC(C(=O)OC)N(C(=O)C4CCC4)C2=NC(C(=O)OC)=C(C(=O)OC)C13 (stereo partly drawn),/,/,/,0,2,-5.1,7
Oc1ccc(O)c2c1C1(Cl)C(Cl)=C(Cl)C2(Cl)C1(Cl)Cl,/,-11,3743,15,11,50,78
CN(C)c1c([N+](=O)[O-])cc2[nH]c(=O)[nH]c2c1[N+](=O)[O-],9,-24,?,3,-5,2.0,-2
Cc1cc(Br)c(OCc2ccc(C(=O)N/N=C3\CC(=O)CC(C)(C)C3)cc2)c(Br)c1,3,-9,2361,/,/,/,/
Cn1c(N)c(C(=O)COC(=O)c2cc3ccccc3cc2O)c(=O)n(C)c1=O,/,-12,4014,7,2,-0.1,-1
CCc1cccc(CC)c1NC(=S)NCc1nc2ccccc2[nH]1,8,-11,5097,-3,2,0.5,4
CCn1c(C)[n+](Cc2ccccc2)c2ccc(C(=O)OC)cc21,5,-7,?,2,17,3.9,2
Cc1ccsc1/C=N/NC(=O)c1ccccn1,11,-45,10163,/,/,/,/
Cc1nc2ccccc2c(=O)n1/N=C/c1cn(-c2ccccc2)nc1-c1cccs1,-12,4,4978,/,/,/,/
O=C(NCc1ccco1)C1CN(S(=O)(=O)c2ccccc2)CCN1S(=O)(=O)c1ccccc1 (stereo not drawn),0,3,20955*,-1,-4,3.2,3
COc1ccc(CCN2CC(C#N)=C3c4cc(OC)c(OC)cc4CCN3C2)cc1OC,-4,-5,5861,-8,-1,5.4,-5
CCn1nc(C)c(NC(=O)/C=C/c2cnn(C)c2)c1C,1,-26,19664*,3,11,1.2,-2
COc1ccc(NC(=S)NNC(=O)c2ccc(S(=O)(=O)N3CCOCC3)cc2)cc1,-7,-13,4558,1,8,7.9,0
CC(=NNc1nc(N)cc(Cl)n1)c1cccc(N)c1,/,/,/,-3,6,1.3,0
C=CCOc1c(Br)cc(C=NO)cc1OCC,/,/,/,3,5,1.8,68
O=C1/C(=C/c2ccccn2)SC(=S)N1c1cccc(O)c1,15,-6,4647,4,1,5.0,8
CCCOC(=O)C1[C@H]2C(=O)N(CCCOC)C[C@]23C=C[C@H]1O3 (stereo partly drawn),6,-34,10392,-2,0,0.9,2
Cc1nc(N2CCOCC2)c2c(C)c(C(=O)Nc3ccccc3Cl)sc2n1,6,-8,4154,-6,7,1.1,-3
O=c1c2sc(-c3ccccc3)cc2nc2n1CCCCC2,-5,-69,3681,11,1,19,7
CC(C)Oc1ccccc1-c1nc(SCC(=O)O)n[nH]1,1,-6,2428,/,/,6.2,8
COc1cc(C(=O)Nc2ccc(Cl)c(C(F)(F)F)c2)cc(OC)c1OC,-2,-3,2417,4,1,0.7,-6
CCOc1ccc(-n2c(=O)c3sccc3n(Cc3ccc(C)cc3)c2=O)cc1,-2,-4,5755,9,8,3.7,7
C=C(C)CN(CC)c1nc(N)c2c(N)nc3c(c2c1C#N)CC(=O)N3C12CC3CC(CC(C3)C1)C2,-5,-2,3940,-71,-9,-0.5,-15
Fc1ccc(NC(=S)NCCc2ccc(Cl)cc2)cc1,-7,-17,1973,12,12,-2.0,-12
Cc1nn(C)cc1C(C(=O)NC1CCCCC1)N(C(=O)Cn1nnc2ccccc21)c1ccc(F)cc1 (stereo not drawn),-8,-14,6309,9,2,6.8,3
O=C(NCCN1CCCC1=O)C1CCC(=O)N(CCc2ccc(Cl)cc2)C1 (stereo not drawn),3,-18,4391,-8,-3,-6.3,-7
COc1cc(C(F)(F)F)c(C(=O)N(C)Cc2cc(Cl)cc(Cl)c2)cn1,-3,-30,6565,11,3,2.8,0
COc1cccc(-c2csc(NNC(=O)c3cccs3)n2)c1,1,-9,4330,5,-4,-3.0,2
c1ccc2cc(CCCc3cc4ccccc4cn3)ncc2c1,/,-12,3141,8,13,9.7,18
NC(=O)CSc1nc2sc(-c3ccccc3)cc2c(=O)n1N,-2,-37,3143,/,/,/,/
CCOc1ccc(-c2nnc(-c3ccncc3)o2)cc1OCC,-3,-1,2872,14,5,11,6
CCC(=O)Nc1ccc2c(c1)ncn2-c1ccccc1,4,-37,21985*,6,12,5.3,-9
CCN(CC)c1ccc(NC(=O)CSc2nc3nc(C)cc(C)c3c(=O)[nH]2)cc1,-11,-8,5442,6,2,3.2,8
O=C(CSc1nnc(Cc2cc(=O)[nH]c(=O)[nH]2)n1-c1ccc(F)cc1)N1CCCCC1,-2,-11,5562,/,/,1.1,2
Cc1ccc(C(=O)N2CC(=O)Nc3ccc(F)cc3C2c2ccccc2)cc1[N+](=O)[O-] (stereo not drawn),-3,-3,1995,11,1,3.8,-1
COc1ccc(CC(=O)Nc2cc3oc4ccccc4c3cc2OC)cc1,-12,-64,2208,8,11,-6.9,9
Nc1cc2nc[nH]c2cc1N,4,6,1817,2,4,5.9,-1
CCCCCCNC(=O)c1c(O)c2cccc3c2n(c1=O)CCC3,3,-13,2312,7,1,-1.1,7
O=C(C1COc2ccccc2O1)N1CCN(c2ccccc2O)CC1 (stereo not drawn),/,-5,/,5,2,6.7,5
CC(C)C[C@H]1CN=C(Nc2ccccc2)N1CCCC1CCCCC1,8,-7,4331,/,/,/,/
CCCCn1[nH]c(-c2ccccc2)cc1=O,3,-10,1951,10,5,26,-2
COc1cccc(OCc2cc(C(=O)N(C)C3CCOCC3)no2)c1,-7,-9,5302,3,4,1.7,1
COC(=O)CN1C(=O)COc2ccc(S(=O)(=O)N3CCCC3)cc21,9,-10,4706,-9,-1,-1.9,0
Nc1nonc1-n1nnc(C(=O)N/N=C/c2ccc(OCc3ccccc3)cc2)c1CN1CCCCC1,11,-37,5283,/,/,/,/
CCOc1ccc2oc(C(=O)NCC(c3ccco3)N(C)C)c(C)c2c1 (stereo not drawn),/,7,5915,-5,3,0.8,5
C1=CN2CCC1C(c1ccccc1)C2 (stereo not drawn),5,25,2244,/,/,1.5,2
COc1ccc2[nH]c3c(c2c1)CCN1C(=O)C(CC(=O)NCCN2CCOCC2)C[C@H](C(=O)N2CCOCC2)[C@@]31C (stereo partly drawn),/,-12,2961,-5,7,3.7,4
CC(C)(C)OC(=O)N1CCC(CNC(=O)c2ccc(F)cc2)CC1,-7,-9,3820,3,-2,2.0,10
Cc1ccc(S(=O)(=O)CCC(=O)OCC(=O)NC(N)=O)cc1,-2,-14,4934,7,-2,8.1,5
Cc1n[nH]c(=S)n(NC(=O)/C=C/C(=O)Nn2c(=S)[nH]nc(C)c2=O)c1=O,5,-29,4271,1,5,2.3,3
CCN(CC)C(=O)CCC(=O)Nc1ccc(C(=O)OC)cc1,9,-6,2577,6,2,4.5,0
CCOC(=O)c1ccc(Nc2c(CC)c(C)nc3ncnn23)cc1,9,-10,17060*,0,-9,1.2,6
O=C(NC(=S)Nc1cc(Cl)ccc1N1CCOCC1)c1ccc(-c2cccc(Cl)c2)o1,-2,-5,16940*,4,-2,2.4,-3
O=C1C=C(c2cccc(CO)c2)CC(c2ccc3c(c2)OCO3)C1 (stereo not drawn),/,/,/,2,6,5.2,-11
CCOC(=O)C1(Cc2cccc(F)c2)CCN(C(=O)Cc2cccnc2)CC1,-3,-5,2071,3,4,5.8,1

# (cont.)
SMILES,BJeLR viability,PrP 5UTR inh,Autofluor counter,Mtb hypoxia rep,Mtb hypoxia rep growth,RN4220 kill,Sa ugtP lethal
COC(=O)c1nc(-n2nc(C)cc2C)ccc1Cl,-1,-24,8336,4,0,7.2,13
Cc1cc(NC(=O)CSCc2nc(-c3cccc(F)c3)oc2C)no1,-5,-20,4378,5,7,4.3,5
CCOc1ccccc1NC(=O)CN1C(=O)C(=O)N(Cc2ccco2)C1=O,2,1,4214,6,0,2.2,3
Cn1ncc(Cl)c1C(=O)Nc1ccc2c(c1)CCC2,-9,-33,4332,6,-1,4.2,5
CN1CCN(CCC2Oc3cc([N+](=O)[O-])ccc3NC2=O)CC1 (stereo not drawn),5,-46,4173,-9,-2,5.0,7
Cc1cccc2cc(C#N)c(SCC(=O)N3CCC(C)CC3)nc12,0,-18,4108,/,/,-2.7,-13
COC(=O)C1=C(c2cccc(OC)c2OC)C[C@@H]2CC[C@H]1N2C(=O)NC1CC1,-10,-22,4043,/,/,/,/
Cc1cc(C)n2nc(SCC(=O)NC(=O)c3ccccc3Cl)nc2n1,/,-27,5436,8,4,-1.6,-8
Cc1cc(Oc2ccc(-c3ccccc3)cc2)n2ncnc2n1,2,2,9613,-2,1,6.6,4
COc1ccc(CCN(C)C/C=C/c2ccccc2)cc1OC,0,-37,3461,-9,-6,3.0,0
Cc1cc(C)cc(NC(=O)C2C3C=CC(O3)C2C(=O)O)c1 (stereo not drawn),-13,-27,4054,/,/,/,/
COc1ccc(S(=O)(=O)N2CCOCC2)cc1NC(=O)CCCOc1ccc(Cl)cc1C,/,-5,3518,-4,6,-0.8,-15
COc1ccc(OC)c(C2=CC(=O)CC(c3ccc4c(c3)OCO4)C2)c1 (stereo not drawn),/,/,/,-5,0,7.7,-12
COc1ccc(C(=O)NC(=S)N2C[C@H]3C[C@H](C2)c2cccc(=O)n2C3)cc1,3,-7,4115,/,/,3.4,-12

# Bioassay records deposited in PubChem BioAssay by several laboratories.

# Rows were taken by chance; overall some 4% were active at least once.
